Screening results as filed in PubChem BioAssay.
TRPML1 ag: activates the human TRPML1 channel; 410,000 tested, 0.12% active; activation, % (no concentration beside the values); TRPML1-expressing cells, Ca2+ dye fluorescence, FDSS; host cell line not named in the record; reference of the full effect not given here; Q9GZU1; AID 624414; in the data active = activation above about 50%; inconclusive = about 30% to 50%; inactive = below about 30%; note: 0% is about no effect; the text of the record puts the active cut at 80%
Target sequence (Q9GZU1 whole entry, looked up): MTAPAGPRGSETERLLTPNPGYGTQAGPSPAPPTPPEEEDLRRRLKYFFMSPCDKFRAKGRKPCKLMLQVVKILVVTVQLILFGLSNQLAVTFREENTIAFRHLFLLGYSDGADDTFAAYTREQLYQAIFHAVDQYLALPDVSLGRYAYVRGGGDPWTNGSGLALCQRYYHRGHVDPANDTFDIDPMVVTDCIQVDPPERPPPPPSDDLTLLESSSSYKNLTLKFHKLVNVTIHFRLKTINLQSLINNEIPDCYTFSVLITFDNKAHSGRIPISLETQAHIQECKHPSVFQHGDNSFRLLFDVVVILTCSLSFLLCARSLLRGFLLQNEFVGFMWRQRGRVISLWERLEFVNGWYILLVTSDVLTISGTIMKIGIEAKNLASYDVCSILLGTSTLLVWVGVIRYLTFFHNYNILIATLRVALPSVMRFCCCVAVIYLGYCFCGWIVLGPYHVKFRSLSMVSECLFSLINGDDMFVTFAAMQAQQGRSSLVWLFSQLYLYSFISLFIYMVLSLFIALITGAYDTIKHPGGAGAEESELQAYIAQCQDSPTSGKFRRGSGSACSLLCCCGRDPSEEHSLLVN
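Agonist activity was taken from a 110 s kinetic Ca2+ dye read on the FDSS after pinning compounds onto TRPML1-DL cells. The cells were seeded at 1,500/well with Tet inducer, incubated about 16 h, then dye-loaded at room temperature.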
TRPML1 inh: inhibitors of human TRPML1 channel | Q9GZU1 | TRPML1-inducible cells, Ca2+ dye fluorescence, FDSS; hits give low values; inhibition of EC80 agonist-evoked calcium signal | activity change, negative = inhibition, % (no concentration beside the values) | 390,000 tested, 0.02% active | AID 624415; in the data active means activity change below about -50%; inconclusive means about -30% to -50%; inactive means above about -30%;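 note: stimulus is agonist 54-4 at its EC80 concentration; % is set by controls: 0 for no effect and ±100 for the full control effect; compound concentration not given in the record; the text of the record puts the active cut at -80%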
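Calcium fluorescence in TRPML1-DL cells induced overnight with Tet: a 110 s read after compound pin addition, then a 110 s antagonist read after challenge with 54-4 at 4 uM final (EC80).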
Menin MLL FP FL: inhibitors of human menin-MLL interaction, wild-type MLL peptide. Fluorescence polarization, fluorescein-MLL peptide displacement from menin. FP activity change, % at 61.4 µM. 290,000 tested, under 10 active. AID 1766; inconclusive = falling polarisation curve, or a change in total fluorescence; inactive = total fluorescence flat and polarisation flat or rising; no compound was filed as active; the % refers to the polarisation; negative = inhibition;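 note: % of control where 0% means no effect; inhibitors lower the polarisation; unlabelled MLL peptide was the positive control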
gsp agonist: activates gsp, the McCune-Albright syndrome mutation | gsp mutant cells, cAMP HTRF, 30 min; control for the full effect not named in the record | Potency, µM (series often up to 76.9 µM), inactives show at the top dose activation (cAMP increase), hits mostly activators | 340,000 tested, 0.13% active; active = well fitted activation curve with a large enough effect; inconclusive = small, poorly fitted or top-dose-only effect, or another doubt; inactive = no such curve, though single readings can be large or run the other way; cell line not stated here;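 note: phosphodiesterase inhibitor Ro 20-1724 added with compounds to block cAMP breakdown; potency is the fitted concentration of half-maximal effect; nearly all actives have a fitted effect of over 60% in size; about a fifth of the inactives were tested at one dose only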
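Cells stably selected in G418 were plated at 2000/well, grown 16-24 hr, then given compounds in DMSO with the PDE inhibitor […] (300 uM solution added) for 30 min at 37C; cAMP was read by HTRF.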
gsp antag: antagonists of gsp mutant (McCune-Albright syndrome); 340,000 tested, 0.4% active; Potency, µM (series often up to 76.9 µM), inactives show top-dose activity change, negative = inhibition, actives largely listed as inhibitors; gsp-mutant cells, cAMP HTRF, 30 min; control for the full effect not named in the record; active = falling curve of any shape with a large fitted effect; inconclusive = falling curve, mostly with a smaller effect; inactive = flat or rising curve; cell line not stated here;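 note: intracellular cAMP measured with PDE inhibitor Ro 20-1724 present during compound exposure; potency is the fitted concentration of half-maximal effect; % is set by controls: 0 for no effect and ±100 for the full control effect; nearly all actives have a fitted effect of over 65% in size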
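HTRF cAMP measurement after 30 min RT detection following 30 min, 37C compound treatment alongside […] (added as 300 uM solution) in G418-selected cells seeded at 2000/well and grown 16–24 h.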
ClpP mod: qHTS Assay for Activators of ClpP; ATP-dependent Clp protease proteolytic subunit (Bacillus subtilis (strain 168)), P80244; purified B. subtilis ClpP, FRET peptide cleavage, 20 min; Potency, µM (series often up to 57.5 µM), for inactives: at the highest dose activity change, negative = active; 340,000 tested, 1.9% active; active = well fitted falling curve with a large enough effect; inconclusive = small, poorly fitted or top-dose-only effect; inactive = no such curve, though single readings can be large or run the other way; note: potency is the fitted concentration of half-maximal effect; the source files actives as falling curves though it sought activators and does not explain the sign; nearly all actives have a fitted effect of over 65% in size; many hits overshoot -100%
Target sequence (P80244 whole entry, looked up): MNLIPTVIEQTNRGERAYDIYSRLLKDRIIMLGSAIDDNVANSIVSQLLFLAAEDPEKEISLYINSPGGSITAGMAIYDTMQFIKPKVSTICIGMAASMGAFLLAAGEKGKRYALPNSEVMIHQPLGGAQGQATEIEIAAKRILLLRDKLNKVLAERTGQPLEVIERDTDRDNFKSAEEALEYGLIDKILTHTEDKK
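FRET quenching reversal measured ClpP activation: 10 microg/mL B. subtilis ClpP at pH 8 with the FRET-FV decapeptide, read at 430 nm after 320 nm excitation. The 20-min minus 0-min signal was scaled between DMSO/no-enzyme wells and ADEP (5.8 microM final).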
An asterisk follows results filed as active; ? = inconclusive; · = not tested or not shown; & = joins results of further samples; [ ] = another dose, or the depositor's remark. Outcome played no part in choosing rows; 2.1% or so of the library scored in one or more.

SMILES,TRPML1 ag,TRPML1 inh,Menin MLL FP FL,gsp agonist,gsp antag,ClpP mod
Cc1ccc(/C=N/Nc2nc(N3CCCCC3)nc(N3CCCCC3)n2)o1,1.2,15,-0.8,3%[15.4 µM],-19%,·
COc1cccc(NC(=O)CSC2=Nc3ccccc3N=C(c3ccc(F)cc3)C2)c1,0.5,18,·,·,·,-4.2%
CCCC(C)NC(=O)Cc1ccccc1 (configuration not stated),0.3,-1,0.2,-25%,-3%,2.1%
COc1ccc(-c2nc(CN3CCC(C(=O)NC4CCN(Cc5ccccc5)CC4)CC3)c(C)o2)cc1OC,-0.5,17,0.5,-9%,8%,-3.9%
CCC(C)(C(=O)NC1CCCC1)N(Cc1ccco1)C(=O)c1ccccn1 (configuration not stated),-0.3,-8,0.1,-28%,5%,-0.1%
COc1ccccc1N1CCN(C(=O)c2cc3c(s2)CCCCC3)CC1,1.6,3,·,-8%[15.4 µM],-3%,-1.7%
CCOc1ccc(-c2cc(NC(=O)Nc3cccc(C(C)=O)c3)c(C(=O)OC)s2)cc1,-0.5,-14,·,·,·,-15%
O=C(Cn1c(=O)n(-c2ccccc2Cl)c(=O)c2sc3ccccc3c21)N1CCCC1,0.4,13,·,·,·,4.1%
COCCn1nnnc1C(c1ccccc1Cl)N1CCN(c2ccccc2OC)CC1 (configuration not stated),7.3,3,0.1,-4%,-2%,17%
CC(C)(C)OC(=O)C[C@@H]1C/C=C\C[C@H](CC(=O)N(CCO)Cc2ccccc2)C(=O)NCCOC1=O,-0.7,19,·,·,9%,0.0%
Cc1noc(C)c1COc1ccccc1C(=O)NCCc1ccc(Cl)cc1,2.0,-11,·,13%[15.4 µM],-29%,?
CC1=NN(c2ccc(C)cc2C)C(=O)C1C(c1cccc(O)c1)C1C(=O)N(c2ccc(C)cc2C)N=C1C (configuration not stated),0.8,-3,0.4,-7%,14%,-2.8%
COc1cc(/C=C2/SC(=S)N(Cc3ccccc3)C2=O)ccc1OS(C)(=O)=O,·,·,14,-28%,-10%,-2.6%
CCCCn1c(N)c(N(CC)C(=O)CSCc2c(C)noc2C)c(=O)[nH]c1=O,-0.2,7,1.9,16%,8%,0.0%
COc1ccccc1/C=C1\N=C(C(C)(C)C)OC1=O,0.5,4,-12,0%,-1%,-8.3%

3 compounds already listed, arranged by the value under TRPML1 inh, ascending.
| SMILES | TRPML1 inh | Menin MLL FP FL | gsp agonist |
| --- | --- | --- | --- |
| Cc1noc(C)c1COc1ccccc1C(=O)NCCc1ccc(Cl)cc1 | -11 | · | 13%[15.4 µM] |
| COc1ccc(-c2nc(CN3CCC(C(=O)NC4CCN(Cc5ccccc5)CC4)CC3)c(C)o2)cc1OC | 17 | 0.5 | -9% |
| COc1cccc(NC(=O)CSC2=Nc3ccccc3N=C(c3ccc(F)cc3)C2)c1 | 18 | · | · |

(further entries)
SMILES,TRPML1 ag,TRPML1 inh,Menin MLL FP FL,gsp agonist,gsp antag,ClpP mod
Nc1cccc(C(=O)N/N=C/c2ccsc2)c1,-0.6,1,2.2,-2%[15.4 µM],8%,-14%
Cc1nn(-c2ccc(N3CCOCC3)nn2)c(C)c1CCC(=O)NCc1ccccc1,-0.4&-0.3,-5&3,1.8,-7%,6%,-1.0%&-1.4%
O=C(NCCCN1CCCC1=O)Nc1ccc(F)c(Cl)c1,-0.5,6,1.6,-34%[inhibitor],5%,0.1%
CCOc1ccc(N2CC(C(=O)Nc3cc(C)on3)CC2=O)cc1 (configuration not stated),-0.4,?,3.3,19%,0%,-2.2%
COC(=O)C(C)N1C(=O)S/C(=C\c2cc(C)n(-c3ccccn3)c2C)C1=O (configuration not stated),0.3,-2,-11,0%,?,-3.7%
C[N+](C)(C)CCNC(=O)c1c(O)c2c([nH]c1=O)CCCC2,0.6,5,-0.1,23%,11%,?
Cc1c(C(=O)N2CCCCCC2)nnn1-c1nonc1N,-1.0,46,4.5,?,-2%,0.2%
COc1ccc(CN(C(=O)c2ccco2)c2ccc(C)c(C)c2)cc1,3.0,36,-0.4,2%,8%,·
O=C(Nc1ccccc1C(=O)NCCCN1CCOCC1)c1ccc(F)cc1,0.5,-1,·,-13%,1%,0.3%
COc1ccc(-c2nc(C)c(C(C)=O)n2O)cc1[N+](=O)[O-],-0.1,-4,-0.3,-20%[15.4 µM],-21%,·
Cc1cc(=O)n(CC(=O)N2CCCc3ccccc32)c2c1c(C)nn2-c1cccc(F)c1,0.8,3,·,·,·,-1.9%
C[C@H]1CN([C@@H](C)CO)C(=O)CCCn2cc(nn2)CO[C@@H]1CN(C)C(=O)c1cc(-c2ccccc2)on1,-0.3,-2,·,-1%,·,-1.4%
O=C(Nc1nnc(Cc2ccccc2)s1)C1CCN(C(=O)c2ccco2)CC1,0.0,-4,2.9,1%[15.4 µM],-9%,·
COc1ccc(N2CCN(C(=O)CCn3nc(C)c(S(=O)(=O)N4CCCC4)c3C)CC2)cc1,-1.2,85,·,·,·,-7.0%
Cc1ccc(NC(=O)CSc2nc3nccnc3c(=O)n2CCc2c[nH]c3ccccc23)cc1,2.7,-18,·,·,·,-3.5%
COc1cc(C2c3cc4c(cc3OC(Nc3ccc(C(=O)O)cc3)C2C)OCO4)cc(OC)c1OC (configuration not stated),1.0,2,·,0%,-8%,-1.6%
O=C1CC(C(=O)N2CCCc3ccccc32)CN1c1ccc(Cl)cc1 (configuration not stated),1.7,63,-3.6,?,-8%,·
CCN(CC)c1ccc(NC(=O)CSc2nnc3nc(C)cc(C)n23)cc1,-0.9,-14,2.1,13%,?,0.5%
COc1ccc(C2(CNC(=O)c3ccc(N)cc3)CCCC2)cc1,0.1,23,7.1,12%,0%,-2.9%
CCOC(=O)C1CCCN(CCC(=O)Nc2ccc(F)c(F)c2)C1 (configuration not stated),-0.5,6,2.5,-46%,-8%,-0.2%
CCOc1ccc(CCNC(=O)C(CC)n2nc(C)n3c(cc4sccc43)c2=O)cc1OCC (configuration not stated),1.1,32,5.9,-1%,?,-1.8%
CCOc1ccc(NC(=O)C(C)Sc2nnnn2C)cc1 (configuration not stated),0.3,17,2.0,-33%,1%,0.7%
CCOc1ccc(-c2cc(C)n3nc(C(=O)Nc4cc(Cl)ccc4O)cc3n2)cc1,1.0,-2,·,·,·,-3.5%
COc1ccc(C(=O)NNC(=O)CSc2nnc(C)n2CC2CCCO2)cc1 (configuration not stated),-0.3,11,-1.4,?,8%,·
CCOc1ccccc1N1CCN(CC(=O)NCCc2ccc(S(N)(=O)=O)cc2)CC1,0.3,-2,-5.3,-16%,-2%,·
COCCn1c(N)c(N(Cc2ccccc2)C(=O)CN2C(=O)NC(C)(c3ccccc3)C2=O)c(=O)[nH]c1=O (configuration not stated),-0.1,-10,·,2%,2%,1.2%
N#Cc1nc(N2CCCC2)nc(N2CCCC2)n1,-0.3&-0.6,3,-1.6,28%,-14%,0.1%&1.4%
CCOc1ccccc1C(=O)NCC(=O)N(C)Cc1cccnc1,-0.5,-18,-0.3,1%[15.4 µM],5%,·
CCOCCCNC(=O)Cn1nc(-c2ccccc2)ccc1=O,-0.7,-11,0.1,-15%,13%,-17%
CCc1cccc(NC(=O)c2ccc(CNc3c(N4CCCC4)c(=O)c3=O)cc2)c1,1.2,-9,-0.6,-6%[15.4 µM],8%,·

Continuation.
| structure | TRPML1 ag | TRPML1 inh | Menin MLL FP FL | gsp agonist | gsp antag | ClpP mod |
| --- | --- | --- | --- | --- | --- | --- |
| COc1cc(CC(=O)NC(c2ccccc2)c2ccccc2)cc(OC)c1OC | -1.1 | 0 | -0.9 | -8%[15.4 µM] | 2% | 1.1% |
| S=C(NCCCN1CCOCC1)Nc1cccc(Cl)c1 | -0.6 | 2 | -4.5 | 8%[15.4 µM] | 2% | 1.1% |
| CC1(NC(=O)Nc2cccc3ccccc23)CCS(=O)(=O)C1 (configuration not stated) | 1.4 | 22 | -5.5 | -11% | 5% | · |
| O=C(COc1ncnc2ccccc12)NCc1ccc2c(c1)OCO2 | -0.2 | 2 | 4.4 | -3% | 0% | -2.5% |
| CSc1ncccc1C(=O)OCC(=O)N1CCOCC1 | 0.8 | -7 | -0.8 | -7% | 5% | -1.6% |
| COc1ccc(N2CC(C(=O)N/N=C/c3ccc(C)cc3)CC2=O)cc1 (configuration not stated) | -0.5 | 23 | 2.2 | 15% | -1% | · |
| CC(On1nnc2ccccc21)C(=O)N1CCN(Cc2ccccc2)CC1 (configuration not stated) | -0.6 | 10 | -1.4 | -7%[15.4 µM] | 5% | 0.7% |
| Cc1ccc(Oc2cc(NC(=O)CCCn3nc(C)c([N+](=O)[O-])c3C)cc([N+](=O)[O-])c2)cc1 | 3.0 | 4 | 5.0 | 8% | -14% | -1.5% |
| Cc1ccc(N(C(=O)CNC(=O)c2ccco2)C(C(=O)NC2CCCCC2)c2cccnc2)c(C)c1 (configuration not stated) | 0.3 | 21 | -2.4 | -3% | -2% | · |
| O=C(CNS(=O)(=O)c1cccs1)N1CCc2ccccc2C1 | -1.0 | -7 | 1.2 | -6% | 10% | -0.9% |
| Cc1cc(C)c(S(=O)(=O)N2CCCCC2C(=O)O)c(C)c1 (configuration not stated) | -0.2 | 8 | 4.5 | 10% | -20% | -0.3% |
| CC1CN(c2nc3ccccn3c(=O)c2/C=C(\C#N)C(=O)N2CCOCC2)CC(C)O1 (configuration not stated) | 0.3 | 15 | 3.0 | 0%[15.4 µM] | 10% | · |
| CC(=O)Nc1ccc(S(=O)(=O)Nc2ccc(Nc3ccccc3)cc2)cc1 | 0.4 | -17 | -1.0 | 19% | -4% | -2.5% |
| CC(=O)C[C@H]1c2cc(C(F)(F)F)ccc2S(=O)(=O)N1C1CCCCC1 | -1.3&-0.8 | 50 | · | -21% | -7% | 0.1%&2.1% |
| O=C(CN1C(=O)C(=O)N(Cc2ccco2)C1=O)NC1CCCCC1 | 1.9 | -1 | -2.7 | -1% | ? | -4.0% |
| O=C(CSc1ccc([N+](=O)[O-])cc1)Nc1cccc(S(=O)(=O)Nc2ccccc2F)c1 | -0.3 | -1 | 1.6 | 2% | ? | · |
| Nc1ncnc(N(c2ccccc2)C2CCCCC2)c1[N+](=O)[O-] | -0.9 | -3 | -0.1 | -5% | -7% | -1.0% |
| C/C(N)=C(/C#N)C(=O)COC(=O)c1ccccc1Cc1ccccc1 | 1.8 | 26 | 1.6 | -18% | -22% | -1.2% |
